# NR2E3 ag-1 – NR2E3 (human) agonism. GST-NR2E3/biotin-RetCOR TR-FRET, 1536-well. inhibition of corepressor binding, % at 4.78 µM. actives 0.12% (n = 320,000). AID 2300;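 active = percent inhibition above the cutoff of mean plus 3 SD of all tested compounds, set per screening campaign, cut at about 20% in these data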;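 also: 0% = DMSO wells and 100% = biotin wells as full block of FRET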
#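 Format: 1536-well format; test system: GST-NR2E3 and biotin-RetCOR proteins; read-out basis: percent inhibition of TR-FRET ratio; timing: 5 h incubation at 4 °C; detection: time-resolved FRET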
# NR2E3 ag-2 – agonists of human NR2E3 nuclear receptor; actives 0.35% (n = 360,000); Q9Y5X4; AID 602229; inhibition of corepressor binding, % at 3.98 µM; CHO-S Gal4-NCOR/VP16-NR2E3 two-hybrid, luciferase;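 active = inhibition above the mean of all tested compounds plus 3 SD, cut at about 70% in these data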;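 also: 0% = DMSO with NR2E3 transfected cells and 100% = cells lacking NR2E3 construct; higher means lower luciferase signal from less NR2E3 corepressor binding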
# PDI turbidity – PDI (human) enzyme inhibition. P07237. PDI insulin aggregation turbidity, A650, 90 min. inhibition, % at 10 µM. actives 0.052% (n = 350,000);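 active = mean inhibition across replicates of 30% or more, whatever share of single replicates reach that level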;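 also: absorbance from insulin aggregation driven by PDI reduction with DTT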
# Active calls of the source: *; x = no result given; & = joins results of further samples.
1: CCCC(=O)c1ccc(O)cc1O
2: Cc1nc2ccccc2c(-c2ccccc2)c1CC(=O)O
3: N#Cc1c(-c2ccc(Cl)cc2)c(-c2ccc(Cl)cc2)nn(CCO)c1=O
4: CN1Cc2c(N)cccc2C(c2ccccc2)C1 (stereo not drawn)
5: CC(C)OC(=O)C(C)(C)Oc1ccc(C(=O)c2ccc(Cl)cc2)cc1
6: O=C(O)/C=C/C(=O)O
7: C=C(CN(C)C)C(=O)c1cc(OC)c(OC)cc1OC
8: CC(=O)N1CCN(C(c2ccccc2)c2ccccc2)CC1
9: O=C(O)c1cc(S(=O)(=O)N2CC=C(c3ccccc3)CC2)ccc1O

compound no.	1	2	3	4	5	6	7	8	9
PDI turbidity	14	5	-6	-5&-9	-3	x	7	7	-11
NR2E3 ag-2	-38	-19	-50	-20&20	-18	-30	12	-1	-27
NR2E3 ag-1	x	1	x	3	5	x	x	1	6

# Taken from above.
# In NR2E3 ag-1, Cc1nc2ccccc2c(-c2ccccc2)c1CC(=O)O is entered as 1
# In PDI turbidity, CC(C)OC(=O)C(C)(C)Oc1ccc(C(=O)c2ccc(Cl)cc2)cc1 is entered as -3

# Quoted at random: three records from the list
5: CC(C)OC(=O)C(C)(C)Oc1ccc(C(=O)c2ccc(Cl)cc2)cc1
9: O=C(O)c1cc(S(=O)(=O)N2CC=C(c3ccccc3)CC2)ccc1O
4: CN1Cc2c(N)cccc2C(c2ccccc2)C1 (stereo not drawn)

compound no.	5	9	4
PDI turbidity	-3	-11	-5&-9
NR2E3 ag-2	-18	-27	-20&20
NR2E3 ag-1	5	6	3

# Compound activity (PubChem BioAssay)

# An excerpt, so the mix of outcomes need not match the whole.
